From PubChem
TRPV1 potentiator – enhances activation of the human vanilloid receptor TRPV1. Q8NER1. TRPV1-expressing cells, Fluo-8 calcium influx, capsaicin EC20 potentiation; host cell line not named in the record; control for the full effect not named in the record. potentiation, % at 8.33 µM. actives 0.02% (n = 320,000); active means potentiation above 80%; inconclusive means 30% to 80%; inactive means below 30%; further: 0% is about no effect
Target sequence (Q8NER1 whole entry, looked up): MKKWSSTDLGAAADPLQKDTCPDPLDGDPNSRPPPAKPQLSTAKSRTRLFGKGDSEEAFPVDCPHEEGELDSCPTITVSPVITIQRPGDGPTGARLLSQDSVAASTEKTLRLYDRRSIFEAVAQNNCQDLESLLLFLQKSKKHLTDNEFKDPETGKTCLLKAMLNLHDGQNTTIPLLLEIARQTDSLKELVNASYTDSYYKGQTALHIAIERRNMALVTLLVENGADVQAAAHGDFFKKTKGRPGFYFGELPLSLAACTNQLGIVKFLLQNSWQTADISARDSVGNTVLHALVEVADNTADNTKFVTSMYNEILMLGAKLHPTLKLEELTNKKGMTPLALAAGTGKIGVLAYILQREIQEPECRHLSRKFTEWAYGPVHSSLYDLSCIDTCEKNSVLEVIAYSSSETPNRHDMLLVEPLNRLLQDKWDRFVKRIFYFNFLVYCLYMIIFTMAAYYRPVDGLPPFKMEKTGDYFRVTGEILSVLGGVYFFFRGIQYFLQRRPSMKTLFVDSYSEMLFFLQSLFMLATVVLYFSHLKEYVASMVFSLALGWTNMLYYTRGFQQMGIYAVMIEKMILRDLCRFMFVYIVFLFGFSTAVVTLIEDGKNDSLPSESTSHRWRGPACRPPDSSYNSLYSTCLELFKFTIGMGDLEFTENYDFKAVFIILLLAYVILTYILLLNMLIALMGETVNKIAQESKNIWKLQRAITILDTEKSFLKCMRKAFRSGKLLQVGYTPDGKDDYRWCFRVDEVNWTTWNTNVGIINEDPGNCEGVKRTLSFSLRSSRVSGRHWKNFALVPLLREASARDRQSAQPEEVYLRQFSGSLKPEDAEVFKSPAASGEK
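TRPV1-expressing cells were cultured overnight at 35.5C and loaded with Fluo-8 calcium dye for 40 to 90 min at room temperature. After a 10 s baseline, compound was added and calcium influx was read kinetically for 3 min (ex 480/em 520 nm).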
Menin MLL FP FL – inhibitors of human menin-MLL interaction, wild-type MLL peptide. Fluorescence polarization, fluorescein-MLL peptide displacement from menin. FP activity change, % at 61.4 µM. 290,000 tested, under 10 active; inconclusive = falling polarisation curve, or a change in total fluorescence; inactive = total fluorescence flat and polarisation flat or rising; no compound was filed as active; the % refers to the polarisation; negative = inhibition;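 further: % of control where 0% means no effect; inhibitors lower the polarisation; unlabelled MLL peptide was the positive control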
Sfp PPTase inh – blocks B. subtilis Sfp PPTase activity. Q9F4F7. Biochemical Sfp PPTase activity, qHTS. Potency, µM, for the others: max response, negative = inhibition, hits mostly inhibitors. actives 3.5% (n = 310,000); active means well fitted inhibition curve with a large enough effect; inconclusive means small, poorly fitted or top-dose-only effect, or another doubt; inactive means no such curve, though single readings can be large or run the other way;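 further: the enzyme is Sfp with the accession as filed and its product quenches rhodamine fluorescence; potency means the concentration at half of the fitted maximal effect; 0% = enzyme reaction without inhibitor and -100% = no enzyme wells; top concentration of the series not given in the record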
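Fluorescence-quenching assay: 15 nM Sfp-PPTase preincubated 15 min at room temperature with compound, then 5 uM rhodamine-CoA and 12.5 uM BHQ-2-labelled YbbR peptide added. Fluorescence (ex 525/em 598 nm) read at start and after 30 min; difference gives rate.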
TRPML1 blocker – human mucolipin-1 channel inhibition | TRPML1-inducible cells, Ca2+ dye fluorescence, FDSS; hits give low values; inhibition of EC80 agonist-evoked calcium signal | activity change, negative = inhibition, % (no concentration beside the values) | actives 0.02% (n = 390,000) | AID 624415; in the data active means activity change below about -50%; inconclusive means about -30% to -50%; inactive means above about -30%;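 further: stimulus is agonist 54-4 at its EC80 concentration; on the % scale 0 is the no-effect control and ±100 the full control effect; compound concentration not given in the record; the text of the record puts the active cut at -80%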
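Calcium fluorescence in TRPML1-DL cells induced overnight with Tet: a 110 s read after compound pin addition, then a 110 s antagonist read after challenge with 54-4 at 4 uM final (EC80).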
TRPML1 ag – agonists of human TRPML1 channel. Q9GZU1. TRPML1-expressing cells, Ca2+ dye fluorescence, FDSS; host cell line not named in the record; reference of the full effect not given here. actives 0.12% (n = 410,000). activation, % (concentration not given with the values); in the data active = activation above about 50%; inconclusive = about 30% to 50%; inactive = below about 30%; further: 0% is about no effect; the text of the record puts the active cut at 80%
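Tetracycline-induced TRPML1-DL cells are seeded and incubated overnight before loading with a no-wash Ca2+ dye and quencher. Agonist activity is taken from the 110 s fluorescence read following compound pin-transfer on an FDSS, before EC80 54-4 challenge.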
ClpP mod – qHTS Assay for Activators of ClpP; Potency, µM (series often up to 57.5 µM), for inactives: top-dose activity change, negative = active; AID 651965, 2013; actives 1.9% (n = 340,000); purified B. subtilis ClpP, FRET peptide cleavage, 20 min; active = well fitted falling curve with a large enough effect; inconclusive = small, poorly fitted or top-dose-only effect; inactive = no such curve, though single readings can be large or run the other way; further: potency means the concentration at half of the fitted maximal effect; the source files actives as falling curves though it sought activators and does not explain the sign; nearly all actives have a fitted effect of over 65% in size; many hits overshoot -100%
Target sequence (P80244 whole entry, looked up): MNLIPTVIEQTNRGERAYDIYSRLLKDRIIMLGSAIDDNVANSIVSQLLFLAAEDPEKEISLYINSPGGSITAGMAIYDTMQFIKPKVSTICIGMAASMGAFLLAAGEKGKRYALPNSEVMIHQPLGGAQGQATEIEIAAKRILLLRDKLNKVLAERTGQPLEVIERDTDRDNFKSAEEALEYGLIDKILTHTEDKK
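FRET quenching reversal measured ClpP activation: 10 microg/mL B. subtilis ClpP at pH 8 with the FRET-FV decapeptide, read at 430 nm after 320 nm excitation. The 20-min minus 0-min signal was scaled between DMSO/no-enzyme wells and ADEP (5.8 microM final).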
PINK1 expr mod – modulators of PINK1 expression; PINK1 immunofluorescence, high-content cytometry, 24 h; Potency, µM (highest dose often 76.6 µM), for inactives: top-dose activation (PINK1 increase), most hits filed as activators; actives 0.2% (n = 410,000); AID 624263; active = well fitted activation curve with a large enough effect; inconclusive = small, poorly fitted or top-dose-only effect; inactive = flat fitted curve, though single readings scatter; cell line not stated here;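 further: potency means the concentration at half of the fitted maximal effect; % of control where 0% means no effect; nearly all actives have a fitted effect of over 65% in size; a mitochondrial uncoupler was the plate control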
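Readout is PINK1 immunofluorescence, quantified alongside mitochondrial, cell and nuclear markers by laser-scanning microplate cytometry. Cells from a stable line were exposed to compound titrations (5 concentrations) for 24 hours, with CCCP controls.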
* = called active by the depositor; u = inconclusive; x = not tested or not shown; [ ] = another dose, or the depositor's remark.

Structure,TRPV1 potentiator,Menin MLL FP FL,Sfp PPTase inh,TRPML1 blocker,TRPML1 ag,ClpP mod,PINK1 expr mod
O=C(NCC1CCCO1)c1ccc(NC(=O)c2ccc([N+](=O)[O-])cc2)cc1 (configuration not stated),-28,-5.0,-3%,x,x,-0.4%,3.7%
Cc1ccc(CNC(=O)CCCn2c(=O)c3ccccc3n(Cc3ccccc3Cl)c2=O)cc1,x,x,x,-8,3.3,-5.5%,-1.1%
N#C/C(=C\c1ccncc1)C(=O)Nc1ccc(C(=O)O)cc1,18,7.0,-3%,1,1.1,-2.4%,0.6%
Cc1ccc(NC(=O)c2cc3c(=O)oc4ccccc4c3s2)nc1,4,2.1,23%,1,0.0,-11%,3.9%
O=C(CSc1nc2ccc([N+](=O)[O-])cc2[nH]1)c1ccc(Cl)cc1,-7,-0.4,u,-7,-0.7,1.4%,11%
Cc1ccc(-c2nc3ccccc3[nH]2)cc1NC(=O)c1ccco1,2,-1.5,6%,10,-0.7,-5.9%,-0.1%
Cn1ccc(C(=O)OCC(=O)c2ccccc2)n1,-5,5.3,9%,25,0.5,-0.2%,-0.6%
CCC(=O)N1c2ccc(S(=O)(=O)CCC(=O)N3CCN(c4ccccc4F)CC3)cc2CC1C (configuration not stated),6,3.1,3%,10,-0.1,1.4%,-1.0%
COc1ccc(S(=O)(=O)N2CCC(C(=O)Nc3ccccc3N3CCCCC3)CC2)cc1OC,-1,7.3,-2%,-18,1.0,-3.2%,4.4%
COc1ccc(N=Cc2c(O)n(-c3cccc(C)n3)c(=O)c3ccccc23)c(OC)c1,u,u,16%,-14,3.0,x,45µM*
Cc1ccc(CNC(=O)C2=NNC(=O)CC2)cc1,2,-1.0,15%,-6,0.8,-1.7%,-1.5%
CC12COC3(C(=O)Nc4ccc(Cl)cc4)CC1CCC32C (configuration not stated),3,-2.3,2%,80,0.7,1.0%,u
Cc1nc2n(n1)C(O)c1cc([N+](=O)[O-])ccc1S2 (configuration not stated),16,-0.8,19%,x,x,x,x
O=S(=O)(c1ccc(Cl)cc1)N1CCN(Cc2ccc(O)c3ncccc23)CC1,15,1.0,10%,-3,-1.4,0.4%,0.7%
CCc1nn(CC(=O)Nc2cccc(C)c2C)c(=O)c2cc3sccc3n12,x,x,x,5,-0.8,-22%,1.4%
OCC(O)C(O)C(O)C(O)C=Nc1ccc(/C=C/c2ccnc3ccccc23)cc1 (configuration not stated),x,x,x,x,6.0,0.9%,0.5%
CCN(C(=O)COC(=O)c1ccccc1OCc1ccc(Cl)cc1)C1CCS(=O)(=O)C1 (configuration not stated),x,x,x,3,-0.4,-15%,-1.9%
CC1(C)CN(c2ccc(-c3ccnc4ncnn34)cc2)C1=O,7,-3.4,14%,-7,-0.1,x,-0.2%
COc1ccc2c(c1)CC/C2=N\NC(=O)c1ccccc1,-4,0.1,-10%,-6,-0.1,1.2%,1.2%
CCCCNC(=O)N1CCN(C(c2ccccc2)c2ccccc2)CC1,0,0.3,-22%,-15,0.1,-0.8%,0.3%
COc1ccccc1NC(=O)Cn1ncc2c1-c1ccccc1OC2,8,1.4,22%,16,0.4,-11%,-0.2%
OC[C@@H]1CN(CCN2CCOCC2)C[C@H](n2cnc3c(NCc4ccco4)ncnc32)O1,x,x,x,x,-0.6,1.9%,1.4%
Cc1occc1C(=O)N1CCCC(N2CCN(c3cccc(C(F)(F)F)c3)CC2)C1 (configuration not stated),8,x,13%,-5,0.4,0.2%,0.8%
COC(=O)c1c(NC(=O)c2nc(SCc3cccc(C)c3)ncc2Cl)sc2c1CCCC2,x,x,x,-10,0.0,1.2%,0.3%
Cc1occc1C(=O)N/N=C/C=C\c1ccccc1[N+](=O)[O-],-7,-3.3,1%,-4,-0.6,x,1.7%
CCOC(=O)CN1C=C(c2ccc3ccccc3n2)C(C[N+](=O)[O-])c2ccccc21 (configuration not stated),13,u,5%,24,0.8,1.2%,0.5%
Cc1cccc(NC(=O)C2CCN(S(C)(=O)=O)CC2)c1C,-6,0.4,19%,53,-0.7,x,0.0%
O=C(COC(=O)c1cc(S(=O)(=O)N2CCOCC2)ccc1F)NC1CCCCC1,-9,x,x,-13,1.8,-3.6%,0.8%
O=C(NCCC1=CCCCC1)C1CCN(c2nc3ccccc3o2)CC1,-31,1.4,5%,-5,2.3,0.0%,7.2%[38.3 µM]
COc1ccc(NC(=O)CSc2nc(N3CCCCC3)nc(N3CCCCC3)n2)cc1,9,3.4,10%,7,1.2,1.5%,22%[38.3 µM]

Entries shown so far containing an NH in an aromatic ring:
Structure,TRPV1 potentiator,Menin MLL FP FL,Sfp PPTase inh,TRPML1 blocker,TRPML1 ag,ClpP mod,PINK1 expr mod
O=C(CSc1nc2ccc([N+](=O)[O-])cc2[nH]1)c1ccc(Cl)cc1,-7,-0.4,u,-7,-0.7,1.4%,11%
Cc1ccc(-c2nc3ccccc3[nH]2)cc1NC(=O)c1ccco1,2,-1.5,6%,10,-0.7,-5.9%,-0.1%

More structures follow:
Structure,TRPV1 potentiator,Menin MLL FP FL,Sfp PPTase inh,TRPML1 blocker,TRPML1 ag,ClpP mod,PINK1 expr mod
CS(=O)(=O)c1ccc(-c2cccc(NC(=O)c3ccc4c(c3)OCO4)c2)nn1,x,x,x,-1,-0.6,0.3%,4.8%
Cc1c(C)c(C)c(C(=O)C2CCN(c3ccc([N+](=O)[O-])cn3)CC2)c(C)c1C,1,4.7,19%,23,0.7,2.6%,9.7%
COc1cc(C(=O)NC(CCSC)C(=O)Nc2ccc(N3CCOCC3)cc2)cc(OC)c1OC (configuration not stated),x,x,x,-15,-0.2,-1.7%,2.1%
O=C(NCCc1ccc(Cl)cc1)c1ccc(=O)[nH]c1,0,-1.3,10%,-15,-0.2,x,0.3%
O=C1C(=Cc2ccncc2)CCCc2ccccc21,x,x,x,14,0.1,-0.8%,-1.8%
Cc1cccc(-n2ccnc2SCC(=O)Nc2cccc3ccccc23)c1C,x,x,x,2,1.0,-3.9%,-4.7%
Cn1c(SCCCC(=O)c2ccccc2)nnc1-c1ccncc1,27,5.9,0%,7,-0.5,-1.0%,-0.1%
CCOc1ccc2nc(NC(=O)Cn3c(C)csc3=O)sc2c1,-20,x,x,5,-0.8,0.8%,0.6%
C=CCn1nnnc1-c1cc(Cl)cc(Cl)c1,-5,-3.8,12%,5,0.0,x,2.8%
CC(=O)N1CCc2c(sc(NC(=O)C3CCN(S(=O)(=O)c4cccs4)CC3)c2C(N)=O)C1,-14,x,x,27,1.2,x,3.7%
O=S1c2ccccc2Nc2ccccc21,-16,x,x,6,0.1,-8.2%,0.5%
COc1cc(NC(=O)NCCN2CCN(c3ccc(Cl)cc3)CC2)ccc1C,-8,-3.4,10%,0,-0.1,-7.7%,5.0%
O=C1N[C@@H](Cc2ccccc2)COC(=O)[C@@H](Cc2ccc(F)cc2)C/C=C\C[C@@H]1CC(=O)N(CCO)Cc1ccccc1,x,x,x,4,1.6,-5.3%,-0.2%
CCCCn1c(NCCO)nc2ccccc21,16,3.2,10%,10,-0.2,-4.0%,5.5%
COc1cc(-c2cc(N)n(S(=O)(=O)c3ccc(F)cc3)n2)cc(OC)c1OC,-7,2.2,3%,-25,-0.6,-3.7%,9.5%
COc1cccc(-c2nnc3sc(-c4ccccn4)nn23)c1,3,5.7,10%,8,-1.0,-4.2%,2.6%
CCCc1cc(C(N)=O)c(NC(=O)c2ccoc2C)s1,u,7.6,13µM*,5,3.0,-22%,9.3%[38.3 µM]
O=C(NC(=S)Nc1ccc(S(=O)(=O)Nc2ncccn2)cc1)c1ccc(Br)cc1,-8,-9.7,u,1,1.9,x,-0.1%
CC1=NN(c2ccccc2)C(=O)/C1=C\c1ccc(Oc2ccc([N+](=O)[O-])cc2[N+](=O)[O-])cc1,23,5.4,-6%,30,6.4,x,8.9%
COc1cc(NC(=O)CSc2ncnc3sc4c(c23)CCCC4)c(C(=O)O)cc1OC,u,2.3,u,-6,1.0,x,-1.1%
CCc1nnc(NC(=O)CCC(=O)N2CCN(C3CCCCC3)CC2)s1,-32,1.6,9%,3,-0.4,-0.4%,x
COc1ccc(S(=O)(=O)N2CCOCC2)cc1Cl,5,0.0,10%,9,0.2,-0.2%,-0.8%[38.3 µM]
CCN1CCN(C(=O)CCCCCn2c(=O)[nH]c3cc(C(=O)OC)ccc3c2=O)CC1,4,6.4,13%,2,-0.5,25µM*,0.7%
CCC(=O)Nc1ccc(C(=O)COC(=O)c2sc(C)nc2C)cc1,2,x,x,-9,1.0,x,-2.2%
COc1ccc(S(=O)(=O)c2c(Nc3ccc(C)cc3)sc(C(=O)c3ccc(C)cc3)c2N)cc1,x,x,x,42,7.1,u,0.4%
NC(=O)CC(NC(=O)Cc1ccc(Cl)cc1)c1ccc(NC2CCCC2)c([N+](=O)[O-])c1 (configuration not stated),6,4.7,16%,-11,0.2,0.2%,16%
Cc1c(NC(=O)Nc2cccc(Cl)c2)c(=O)n(-c2ccccc2)n1C,-2,2.2,-11%,-9,0.3,-0.9%,1.4%[38.3 µM]
COc1cccc(NC(=O)N2CCN(C(=O)c3nsc4ccccc34)CC2)c1,x,x,x,-5,-0.1,-0.3%,-0.9%
O=C1Oc2ccccc2C(=O)/C1=C/c1ccccc1O,-2,0.6,0%,9,-0.2,x,0.5%
